Arbovirus inh: blocks arbovirus infection; arbovirus infection cell-based antiviral screen; inhibition, % at 10 µM; actives 0.37% (n = 200,000);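 active means inhibition from about 30%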;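 further: bluetongue infection of BSR cells; cell survival read as ATP light after 72 h; 0% = infected wells without compound and 100% = uninfected wells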
YopH PTP inh: blocks Yersinia enterocolitica YopH tyrosine phosphatase; actives 0.16% (n = 140,000); AID 898; fluorescence Ex485/Em525; inhibition, %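 (about 10 µM by stock and volumes)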;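 active means inhibition of 50% or more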;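 further: controls were vehicle for no effect and minimum signal wells for full effect; inactives centre near -20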
Mtb betalactam: beta-lactam sensitization of Mtb H37Rv | actives 0.27% (n = 330,000) | AID 434955 | M. tuberculosis H37Rv growth with meropenem, percent inhibition; hits of this screen are not shown here | inhibition, % at 25 µM;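 active means about 74% or more and at least 40 points above the plate without the antibiotic, then above 30% in a dose series; inconclusive means first-round hits that could not be retested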;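 further: growth measured after seven days incubation then overnight dye step; 0% = bacteria only wells and 100% = bacteria with antibiotic; twin plates without the antibiotic show which effects depend on it; some results filed as inactive read as strong as hits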
RecA intein inh: inhibitors of M. tuberculosis RecA intein splicing; P9WHJ3; cell-free RecA intein splicing, fluorescence; inhibition, %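 (about 9 µM by stock and volumes)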; actives 0.75% (n = 290,000); AID 2221; in the data active means inhibition above about 30%; inconclusive means no clear call, values can overlap the other calls;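 further: 0% = vehicle wells and 100% = reference inhibitor control wells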
Target sequence (P9WHJ3 whole entry, looked up): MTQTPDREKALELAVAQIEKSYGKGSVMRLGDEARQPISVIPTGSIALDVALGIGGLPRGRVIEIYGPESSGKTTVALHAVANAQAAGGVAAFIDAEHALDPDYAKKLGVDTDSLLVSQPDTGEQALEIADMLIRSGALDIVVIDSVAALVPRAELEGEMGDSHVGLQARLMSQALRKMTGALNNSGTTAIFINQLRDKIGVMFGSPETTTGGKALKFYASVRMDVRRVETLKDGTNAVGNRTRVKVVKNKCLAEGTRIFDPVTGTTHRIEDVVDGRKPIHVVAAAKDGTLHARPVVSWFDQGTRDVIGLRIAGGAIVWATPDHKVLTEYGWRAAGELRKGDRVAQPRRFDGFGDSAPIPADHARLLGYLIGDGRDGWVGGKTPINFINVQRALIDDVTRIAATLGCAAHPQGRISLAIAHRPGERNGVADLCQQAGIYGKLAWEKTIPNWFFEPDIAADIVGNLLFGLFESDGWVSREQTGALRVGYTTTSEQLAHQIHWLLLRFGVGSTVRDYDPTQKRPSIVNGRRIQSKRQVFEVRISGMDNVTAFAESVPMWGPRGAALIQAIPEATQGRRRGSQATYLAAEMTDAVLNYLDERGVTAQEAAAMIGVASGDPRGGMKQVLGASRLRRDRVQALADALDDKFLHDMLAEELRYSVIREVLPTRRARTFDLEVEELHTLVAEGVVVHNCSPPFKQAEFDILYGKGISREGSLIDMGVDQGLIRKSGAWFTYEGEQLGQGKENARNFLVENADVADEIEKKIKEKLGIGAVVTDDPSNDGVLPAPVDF
Mtb H37Rv: M. tuberculosis H37Rv growth inhibitors, H37Rv strain (AID 1626); M. tuberculosis H37Rv growth inhibition; higher % means a stronger effect; inhibition, % at 10 µM; hits with a dose series show IC50 in µM; actives 0.95% (n = 220,000);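 active means confirmed in a dose series; inconclusive means inhibition above 80% but not taken into the dose series; inactive means below 80% or under 30% at every dose of the series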;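 further: bacteria incubated seven days before Alamar blue readout; 0% = bacteria only wells and 100% = bacteria with antibiotic wells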
Arbovirus inh repeat: further read-out of Arbovirus inh, marked with its call; inhibition, %; measured here: 10K subset replicate screen; many hits read low in the repeat;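 first of two repeat runs on a subset; 0% = infected and 100% = uninfected wells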
* = called active by the depositor; u = inconclusive; x = not tested or not shown. This is a subset; rates above refer to the full screens.

SMILES | Arbovirus inh | YopH PTP inh | Mtb betalactam | RecA intein inh | Mtb H37Rv | others
CN(C)CCCN(C(=O)c1cccs1)c1nc2cc3c(cc2s1)OCO3 | -8 | x | -12 | 0.5 | -4%
COC(=O)CCN(C(=O)c1ccc([N+](=O)[O-])cc1)c1ccccn1 | x | x | -4 | 0.0 | -4%
O=[N+]([O-])c1ccc(S(=O)(=O)Nc2ccc(S(=O)(=O)N3CCCC3)cc2)cc1 | x | x | -5 | -0.4 | x
Cc1ccc(-n2ncc(N(C)C)c(Cl)c2=O)cc1 | -2 | -27 | -11 | 2.4 | x
O=C(c1cccc(-c2ccco2)c1)N1CCCC(N2CCN(c3ccc(F)cc3)CC2)C1 (centres undefined) | x | x | 96 | -2.0 | x
C/C(=N\NC(=O)C1CCCC1)c1ccc(C(C)C)cc1 | x | x | -10 | 2.2 | x
CSc1nnc(C(C)(C)C)c(=O)n1/N=C/c1ccccc1O | x | x | -3 | -1.8 | 5%
CC[C@@]12C(=O)N(c3cccc(Br)c3)C(=O)N1[C@H](c1cccc(C)c1)[C@@H]1C(=O)N(Cc3ccccc3)C(=O)[C@@H]12 | x | x | -12 | 7.2 | x
O=C(c1ccc(Cl)cc1)N1CCC(=O)N(C(CO)Cc2ccccc2)CC1 (centres undefined) | x | x | -8 | 1.1 | -9%
COc1ccc(C(=O)NCCNc2nc3cc(C)c(C)cc3cc2C)cc1 | x | x | 6 | 0.8 | x
COc1ccc(-c2noc(CNC(=O)c3ccc4c(c3)OCO4)n2)cc1OC | x | x | -5 | -2.9 | x
Cc1ccccc1NC(=O)c1cc(S(=O)(=O)N2CCOCC2)ccc1F | 6 | -32 | -8 | 0.5 | 4%
Cc1nn(C)c(-c2n[nH]c(=S)n2Cc2ccco2)c1Cl | -2 | -18 | 6 | -2.5 | 1%
CS(=O)(=O)N(CC(=O)NCc1cccnc1)Cc1ccc(Cl)cc1 | 4 | 3 | 1 | 1.0 | 7%
COc1ccc(CN(CCC(c2ccc(F)cc2)C2CCOC(C)(C)C2)C(=O)c2ccco2)cc1 (centres undefined) | -43 | -9 | 0 | 25 | 7%
Cc1ccc(S(=O)(=O)NCCCC(=O)C=[N+]=[N-])cc1 | -9 | -33 | -1 | x | -6%
Cc1cccc(NC(=O)CCN2C(=O)C3C4CCC(C4)C3C2=O)c1C (centres undefined) | -2 | -21 | 0 | -0.1 | -6%
COc1cc(CNCCCN2CCOCC2)ccc1OCC(=O)Nc1cccc(C(F)(F)F)c1 | -24 | -47 | -4 | -1.6 | 4%
COc1cccc(NC(=O)COC(=O)c2c(F)cccc2F)c1 | -4 | -20 | 6 | -4.4 | 1%
COC(=O)C(Cc1ccccc1)NC(=O)CNS(=O)(=O)c1ccc(Br)cc1 (centres undefined) | 2 | x | 2 | 1.9 | -1%
Cc1ccc(SCCC(=O)N2CCC(C(N)=O)CC2)cc1 | 3 | -33 | -10 | -4.3 | -11%
Cc1ccc(-n2c(C)cc(C(=O)CSc3n[nH]c(N)n3)c2C)cc1 | 0 | -40 | -1 | -0.2 | 1%
CC(C)[C@H](NC(=O)c1ccco1)C(=O)OCC(=O)Nc1ccc(F)cc1 | 4 | x | 4 | -2.3 | 1%
N#Cc1cccc(NC(=O)CN2NS(=O)(=O)c3ccccc3C2=O)c1 | 2 | 2 | 4 | 1.0 | -6%

Entries above that contain bromine, in the order listed:
SMILES | Arbovirus inh | YopH PTP inh | Mtb betalactam | RecA intein inh | Mtb H37Rv | others
CC[C@@]12C(=O)N(c3cccc(Br)c3)C(=O)N1[C@H](c1cccc(C)c1)[C@@H]1C(=O)N(Cc3ccccc3)C(=O)[C@@H]12 | x | x | -12 | 7.2 | x
COC(=O)C(Cc1ccccc1)NC(=O)CNS(=O)(=O)c1ccc(Br)cc1 (centres undefined) | 2 | x | 2 | 1.9 | -1%

Later entries
SMILES | Arbovirus inh | YopH PTP inh | Mtb betalactam | RecA intein inh | Mtb H37Rv | others
Cn1ncc2c(N3CCN(c4ccc(Cl)c(Cl)c4)CC3)ncnc21 | -20 | x | 9 | 2.4 | 2%
N#CC(c1ccccc1)c1ccc(C(=O)c2ccc(F)cc2)cc1 (centres undefined) | 8 | -34 | 94 | 12 | 10%
Cc1cc2ccccc2n1CCNC(=O)c1ccc(S(=O)(=O)N2CCOCC2)cc1 | -1 | -17 | 1 | -1.2 | -4%
CCCCN1CC[C@H]2C=CC[C@@H](C(=O)Nc3nccs3)[C@H]2C1=O | x | x | -5 | -0.7 | -10%
CCOC(=O)C1(C)C=C(Nc2ccc(OCC)cc2)C(=O)N1c1ccccc1 (centres undefined) | 0 | -10 | 97 | -1.8 | u
C=CCNC(=O)c1cc(Cl)ccc1Cl | 0 | 16 | -5 | x | -6%
Cc1nn(-c2ccccc2)c(C)c1NC(=O)COC(=O)c1ccc(O)cc1O | x | x | -1 | -1.4 | x
CCOC(=O)c1cnc(-c2ccccc2)nc1N1CC(C)OC(C)C1 (centres undefined) | 2 | x | 3 | 2.6 | -1%
CCc1ccc(NC(=O)CSc2nnc(SCC(=O)Nc3ccc(CC)cc3)n2N)cc1 | -13 | -21 | 72 | 6.0 | 48%
COc1ccc(C/C(C)=N/Nc2nc(C)cc(=O)[nH]2)cc1 | 1 | x | -4 | -7.7 | -3%
CC(C)n1c(SCC(=O)N2c3ccccc3Sc3ccccc32)nc2c1c(=O)n(C)c(=O)n2C | -15 | -46 | x | -1.5 | 4%
O=C1CCCN1c1ccc(S(=O)(=O)O)cc1 (tested in a mixture with another compound) | 2 | -47 | -2 | -3.6 | 5%
Cc1csc(NC(=O)c2cccc(S(=O)(=O)N3CCCCC3)c2)n1 | 4 | 5 | 9 | 2.0 | -5%
CC(C)CCn1c(COc2ccccc2)nn(CCC#N)c1=S | x | x | 5 | 0.2 | x
Cc1ccc(OCCCCN(C)Cc2ccccc2)c(Br)c1 | -4 | -29 | -2 | -2.1 | 13%
CN(C)Cc1n[nH]c(=O)c2ccccc12 | 7 | x | 1 | -1.2 | 3%
Cc1c2cnn(CC(=O)N3CCC4(CC3)OCCO4)c(=O)c2c(C)n1Cc1ccc(F)cc1 | 2 | -30 | -14 | -2.5 | 0%
O=C(NCCCc1ccccc1)Nc1ccccc1 | -2 | -19 | -2 | -0.2 | 2%
Cc1cc(=O)[nH]c(SCC(=O)NNC(=O)Cc2ccccc2)n1 | 10 | x | 4 | 0.7 | 3%
Fc1ccc(-n2c(-c3ccco3)n[nH]c2=S)cc1 | x | x | 5 | -1.0 | x
COCc1nnc(NC(=O)CSc2ccccc2)s1 | 3 | -20 | -19 | -2.0 | -9%
COc1ccc(C(=O)N/C(=C\c2cn(S(=O)(=O)N(C)C)c3ccccc23)C(=O)NCCN2CCOCC2)cc1 | x | x | 12 | 0.9 | x
FC(F)Sc1ccc(NC2=NCCCCC2)cc1 | x | x | -3 | -0.6 | x
CCOC(=O)C1CCCN(c2c(NCCCN(C)c3ccccc3)c(=O)c2=O)C1 (centres undefined) | 5 | 10 | -2 | -2.1 | 0%
O=C(O)c1ccccc1N=Nc1c(O)[nH]c(=O)[nH]c1=O | x | x | -10 | 2.6 | -5%
NS(=O)(=O)c1cccc(NC(=O)CCC(=O)c2cccs2)c1 | x | x | 2 | -2.1 | x
Cc1cc(C)nc(SCC(=O)Nc2nccs2)n1 | x | x | -1 | -2.9 | x
O=C(Cn1c2ccccc2c2nc3n(c(=O)c21)CCS3)N1CCCC1 | x | x | -1 | -0.9 | x
Cc1ccc(Cn2nc(C(=O)Nc3ccc(Br)cc3)cc2C)cc1 | x | x | -2 | -0.2 | x
Cc1nc2ccccn2c1/C(O)=C1\C(=O)C(=O)N(CCN2CCOCC2)C1c1cccnc1 (centres undefined) | -1 | -35 | -5 | -1.3 | -3%
O=C(NCCc1ccccc1)C1CCC(CNS(=O)(=O)c2cccs2)CC1 (centres undefined) | -1 | x | 3 | -3.0 | -2%
Cc1ccc2nc(SCC(=O)Nc3ccc4c(c3)CCC4)[nH]c2c1 | -9 | -14 | 95 | 4.4 | >100µM*
CC1(C)NC(=O)N(CC(=O)N2CCC(Cc3ccccc3)CC2)C1=O | x | x | -12 | -1.5 | x
O=C(CSc1nnc(CNC(=O)c2c(F)cccc2Cl)o1)NC1CCCC1 | x | x | 5 | -23 | x
Cc1occc1C(=O)Nc1cccc([N+](=O)[O-])c1 | -3 | -21 | 2 | 1.7 | -2%
Fc1ccc(-c2nc3n(n2)Cc2ccccc2-3)cc1 | -6 | 17 | 1 | -6.0 | -9%
O=C(CSc1ccccn1)Nc1nncs1 | 1 | -10 | -13 | -0.1 | -5%
CCC(C(=O)N1CCN(c2ncccn2)CC1)c1ccccc1 (centres undefined) | x | x | -2 | 0.0 | 10%
CCc1cccc(CC)c1NC(=O)/C(C#N)=C/c1ccccc1C(F)(F)F | -33 | -24 | -1 | 31* | 4%
COCCOc1ccc(C(F)(F)F)cc1NC(=O)c1ccc(C(F)(F)F)cc1 | -4 | -12 | 53 | -2.2 | 7%
CN(C)c1nc(N)nc(CSc2nnnn2-c2ccc(C(=O)O)cc2)n1 | -1 | -10 | -8 | -1.0 | -1%
C[C@@H]1NC(=O)[C@H](CCC(=O)O)NC(=O)c2cc([N+](=O)[O-])cc(F)c2NCCC[C@@H](C(N)=O)NC1=O | -5 | -28 | -3 | 0.8 | -19%
O=C(COc1ccc(Cl)cc1Cl)NNC(=O)c1cccnc1 | x | x | -8 | 2.3 | x
Cc1cc(C(=O)COc2ccc([N+](=O)[O-])cc2)c(C)n1C1CC1 | x | x | 45 | -1.9 | 2%
CCC(NC(=O)Nc1ncccc1C)(C(F)(F)F)C(F)(F)F | 2 | -56 | -26 | -1.8 | -6%
Cc1ccc(C(=O)Nc2ccccc2C(=O)N2CCOCC2)cc1[N+](=O)[O-] | 2 | -18 | 2 | 0.3 | 4%
CCOC(=O)C1C(C(=O)OCC)C1(c1ccccc1)c1ccccc1 (centres undefined) | 1 | -28 | 1 | 0.3 | -1%
Cc1nc2ccccc2nc1OCC(=O)N1CCN(c2ccccc2)CC1 | 0 | -37 | -2 | -0.3 | 2%

A stretch of the results above:
SMILES | Arbovirus inh | YopH PTP inh | Mtb betalactam | RecA intein inh | Mtb H37Rv | others
O=C(CSc1ccccn1)Nc1nncs1 | 1 | -10 | -13 | -0.1 | -5%
CCC(C(=O)N1CCN(c2ncccn2)CC1)c1ccccc1 (centres undefined) | x | x | -2 | 0.0 | 10%
CCc1cccc(CC)c1NC(=O)/C(C#N)=C/c1ccccc1C(F)(F)F | -33 | -24 | -1 | 31* | 4%
COCCOc1ccc(C(F)(F)F)cc1NC(=O)c1ccc(C(F)(F)F)cc1 | -4 | -12 | 53 | -2.2 | 7%

(more compounds)
SMILES | Arbovirus inh | YopH PTP inh | Mtb betalactam | RecA intein inh | Mtb H37Rv | others
COc1ccccc1CNC(=O)[C@@H]1CCCN1C(=O)[C@@H]1Cc2ccccc2CN1C(=O)OC(C)(C)C | x | x | -8 | 1.9 | x
COc1ccccc1N=Nc1nc(-c2ccccc2)c(-c2ccccc2)[nH]1 | -1 | -18 | 6 | 15 | 2%
CN(c1ccccc1)S(=O)(=O)c1ccc(C(=O)NCC2CCCO2)cc1 (centres undefined) | 3 | -18 | -8 | 0.7 | -3%
Cn1c(=O)oc2cc(S(=O)(=O)N3CCC(N4CCCCC4)CC3)ccc21 | 5 | x | -4 | x | -2% | Arbovirus inh repeat=3
NC(=S)N/N=C/c1coc2ccc(Cl)cc2c1=O | 6 | x | 3 | -1.9 | 1%
C/C(=N\NC(=S)Nc1cccc(C)c1)c1cccc(N)c1 | -1 | -32 | 95 | 1.0 | 1%
O=C(Nc1ccccc1)N1CCN(c2nc(-c3ccccc3)ns2)CC1 | x | x | 67 | 6.2 | 4%
O=C(Cc1c[nH]c2ccccc12)N/N=C/c1ccccc1O | x | x | 61 | -3.6 | -7%
CCc1nc2ccccc2n(CCOCCOCCn2c(=O)c(CC)nc3ccccc32)c1=O | 3 | -39 | -2 | 7.8 | 3%
CC(C)C(=O)Nc1nc2c(ncn2C2CC(O)C(CO)O2)c(=O)[nH]1 (centres undefined) | 3 | -35 | 4 | -0.5 | -2%
CC(C)c1ccc(/C=C2\C(=O)N(CCN3CCOCC3)C(=S)N2C)cc1 | 6 | x | -2 | 10 | 1%
COc1cccc(C2C(C(=O)c3ccc(C)o3)=C(O)C(=O)N2CCCN(C)C)c1 (centres undefined) | 0 | 6 | x | x | x
O=C(NNC(=O)c1cccnc1)Nc1cccc(Cl)c1Cl | 2 | -32 | -4 | 5.6 | 3%
N#Cc1ccccc1S(=O)(=O)N1CCN(c2cnccn2)CC1 | 3 | x | -5 | -4.4 | -4%
O=C(CCCNS(=O)(=O)c1cccs1)N1CCN(c2ccc(F)cc2)CC1 | 3 | -41 | -4 | 3.8 | -16%
CN(CC(=O)Nc1cccc(C#N)c1)Cc1ccc(Cl)cc1 | -2 | x | -4 | 1.3 | 0%

Assay outcomes: PubChem, several laboratories
